gsp antag – antagonists of gsp mutant (McCune-Albright syndrome); gsp-mutant cells, cAMP HTRF, 30 min; control for the full effect not named in the record; AID 624288; 340,000 tested, 0.4% active; Potency, µM (doses to about 76.9 µM), for the others: top-dose activity change, negative = inhibition, usual class: inhibitors; active = falling curve of any shape with a large fitted effect; inconclusive = falling curve, mostly with a smaller effect; inactive = flat or rising curve; cell line not stated here;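 further: intracellular cAMP measured with PDE inhibitor Ro 20-1724 present during compound exposure; potency means the concentration at half of the fitted maximal effect; on the % scale 0 is the no-effect control and ±100 the full control effect; nearly all actives have a fitted effect of over 65% in size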
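HTRF cAMP read-out (cAMP-d2 plus anti-cAMP antibody-K in lysis buffer, 30 min RT). Before lysis, cells are exposed to compounds with […] for 30 min at 37C in DPBS containing Ca/Mg, BSA and Tween 20.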
Menin-MLL FL inh – menin-MLL binding inhibition, fluorescein peptide | AID 1766 | 290,000 tested, under 10 active | FP activity change, % at 61.4 µM | Fluorescence polarization, fluorescein-MLL peptide displacement from menin; inconclusive = falling polarisation curve, or a change in total fluorescence; inactive = total fluorescence flat and polarisation flat or rising; no compound was filed as active; the % refers to the polarisation; negative = inhibition;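 further: % of control where 0% means no effect; inhibitors lower the polarisation; unlabelled MLL peptide was the positive control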
ClpP mod – qHTS Assay for Activators of ClpP | purified B. subtilis ClpP, FRET peptide cleavage, 20 min | Potency, µM (titrated, usually from 57.5 µM), without a hit: top-dose activity change, negative = active | 340,000 tested, 1.9% active | ATP-dependent Clp protease proteolytic subunit (Bacillus subtilis (strain 168)), P80244; active = well fitted falling curve with a large enough effect; inconclusive = small, poorly fitted or top-dose-only effect; inactive = no such curve, though single readings can be large or run the other way; further: potency means the concentration at half of the fitted maximal effect; the source files actives as falling curves though it sought activators and does not explain the sign; nearly all actives have a fitted effect of over 65% in size; many hits overshoot -100%
Target sequence (P80244 whole entry, looked up): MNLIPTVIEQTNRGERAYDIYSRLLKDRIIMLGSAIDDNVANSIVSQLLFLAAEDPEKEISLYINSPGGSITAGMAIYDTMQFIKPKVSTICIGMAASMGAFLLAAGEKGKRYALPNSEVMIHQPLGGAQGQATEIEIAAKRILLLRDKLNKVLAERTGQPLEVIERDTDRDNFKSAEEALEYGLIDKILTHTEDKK
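FRET quenching reversal measured ClpP activation: 10 microg/mL B. subtilis ClpP at pH 8 with the FRET-FV decapeptide, read at 430 nm after 320 nm excitation. The 20-min minus 0-min signal was scaled between DMSO/no-enzyme wells and ADEP (5.8 microM final).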
D2 ag – agonists of human D2 dopamine receptor (beta-arrestin). activation, % (no concentration beside the values). P14416. AID 624465. DiscoveRx PathHunter D2 beta-arrestin, luminescence, 90 min; 100% = 57 uM dopamine signal. 360,000 tested, 0.084% active; in the data active = activation above about 40%; inconclusive = about 15% to 40%; inactive = below about 15%; further: compound concentration not given in the record; the text of the record calls up to 30% inactive
Target sequence (P14416 whole entry, looked up): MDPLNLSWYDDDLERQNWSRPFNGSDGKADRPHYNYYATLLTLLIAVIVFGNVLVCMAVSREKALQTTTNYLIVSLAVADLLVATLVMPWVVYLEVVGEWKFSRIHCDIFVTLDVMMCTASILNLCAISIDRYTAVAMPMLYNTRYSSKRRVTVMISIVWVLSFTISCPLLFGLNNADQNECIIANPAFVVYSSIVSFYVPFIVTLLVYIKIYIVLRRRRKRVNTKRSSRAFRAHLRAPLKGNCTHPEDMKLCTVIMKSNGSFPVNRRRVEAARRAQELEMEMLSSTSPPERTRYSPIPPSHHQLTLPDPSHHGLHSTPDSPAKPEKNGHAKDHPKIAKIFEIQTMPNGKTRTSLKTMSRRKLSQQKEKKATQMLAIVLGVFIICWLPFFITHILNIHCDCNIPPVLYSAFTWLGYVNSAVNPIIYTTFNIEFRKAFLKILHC
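DiscoveRx PathHunter D2 beta-arrestin cells (2,100/well) attached overnight, then compound-stimulated 90 min at 37 C in HBSS/10 mM HEPES/0.1% Tween-20 buffer; beta-galactosidase complementation read by luminescence after 1 h at ambient temperature. Dopamine 57 uM final (EC100) as control.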
Sfp PPTase inh – inhibitors of Bacillus subtilis Sfp phosphopantetheinyl transferase | Q9F4F7 | Biochemical Sfp PPTase activity, qHTS | Potency, µM, without a hit: max response, negative = inhibition, usual class: inhibitors | 310,000 tested, 3.5% active | AID 1490; active means well fitted inhibition curve with a large enough effect; inconclusive means small, poorly fitted or top-dose-only effect, or another doubt; inactive means no such curve, though single readings can be large or run the other way;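 further: the enzyme is Sfp with the accession as filed and its product quenches rhodamine fluorescence; potency means the concentration at half of the fitted maximal effect; 0% = enzyme reaction without inhibitor and -100% = no enzyme wells; top concentration of the series not given in the record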
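Compounds were incubated with enzyme (final 15 nM) for 15 min at room temperature before substrate addition started the reaction. Fluorescence at 525 nm excitation, 598 nm emission was recorded immediately and after 30 minutes.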
PINK1 modulator – modulators of PINK1 expression. Potency, µM (doses to about 76.6 µM), for inactives: at the top dose activation (PINK1 increase), actives largely listed as activators. 410,000 tested, 0.2% active. PINK1 immunofluorescence, high-content cytometry, 24 h; active = well fitted activation curve with a large enough effect; inconclusive = small, poorly fitted or top-dose-only effect; inactive = flat fitted curve, though single readings scatter; cell line not stated here;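 further: potency means the concentration at half of the fitted maximal effect; % of control where 0% means no effect; nearly all actives have a fitted effect of over 65% in size; a mitochondrial uncoupler was the plate control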
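Decision-based qHTS: stable cells, 24 h exposure to five compound concentrations, CCCP as control. Fixed cells stained for PINK1 plus nuclear, mitochondrial and cell markers, cytometer read.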
gsp agonist – gsp mutant agonism; Potency, µM (top dose mostly 76.9 µM), for inactives: at the top dose activation (cAMP increase), usual class: activators; 340,000 tested, 0.13% active; gsp mutant cells, cAMP HTRF, 30 min; control for the full effect not named in the record; active = well fitted activation curve with a large enough effect; inconclusive = small, poorly fitted or top-dose-only effect, or another doubt; inactive = no such curve, though single readings can be large or run the other way; cell line not stated here;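 further: phosphodiesterase inhibitor Ro 20-1724 added with compounds to block cAMP breakdown; potency means the concentration at half of the fitted maximal effect; nearly all actives have a fitted effect of over 60% in size; about a fifth of the inactives were tested at one dose only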
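Cells stably selected in G418 were plated at 2000/well, grown 16-24 hr, then given compounds in DMSO with the PDE inhibitor […] (300 uM solution added) for 30 min at 37C; cAMP was read by HTRF.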
Active calls of the source: *; u = inconclusive; x = no result given; & = joins results of further samples; [ ] = remark or other dose.

SMILES	gsp antag	Menin-MLL FL inh	ClpP mod	D2 ag	Sfp PPTase inh	PINK1 modulator	gsp agonist
Cc1cccc(Oc2ncccc2[N+](=O)[O-])c1C	-16%	x	0.7%	0.9	x	3.0%	-5%[15.4 µM]
C=CCn1c(SCc2ccc(OC)cc2)nnc1-c1cccnc1	3%	6.3	-0.2%	-2.0	4%	1.0%	-2%
N#Cc1c(Cn2cncn2)nc(=O)n(-c2ccccc2)c1N	12%	5.0	x	2.3	18%	0.5%	16%
CC(/C=N/NC(=O)c1ccc(CN2c3cccc4cccc(c34)S2(=O)=O)cc1)c1ccccc1 (stereo unspecified)	3%	6.1	u	-1.1	7%	4.5%	0%
CC(=O)Nc1ccc(NC(=O)C(C)OC(=O)C(C)SCC(=O)Nc2ccc(C)cc2)cc1 (stereo unspecified)	8%	x	1.2%	-0.6	x	0.5%	-18%
CCn1c(C)nnc1SCC(=O)NC1CCCC1	7%	-1.7	x	2.3	9%	0.2%	21%
O=C(Oc1ccccc1)c1ccc(-n2cnnn2)cc1	-3%	2.3	-5.2%	-0.3	16%	0.1%	3%
Cc1cc(NC(=O)CCC(=O)N(CCC(C)C)CC(=O)NCC2CCCO2)no1 (stereo unspecified)	7%	0.3	-1.8%	0.4	18%	-2.2%	-11%
CC(=O)NCCNc1nc(NC(C)C)nc2ccsc12	x	x	-27%	5.4	x	0.1%	x
CCc1nc(SCC(=O)N2CCc3cc(OC)c(OC)cc3C2)c(C#N)cc1C	-9%	x	32µM*	1.0	x	-1.2%	u
CCOc1ccccc1-c1n[nH]c(=S)o1	6%	3.7	u	0.7	-8%	3.2%[38.3 µM]	u
Cc1ccc(C(=O)N2CCN(S(=O)(=O)N3CCOCC3)CC2)cc1	7%	2.4	x	1.0	-3%	-1.1%	11%
Cc1ccc2c(c1C)OC(=O)CC2(C)C	9%	x	32µM*	-4.2	-8%	1.6%	-23%
CCN(CC)C(=O)CN(c1cccc([N+](=O)[O-])c1)S(=O)(=O)c1ccccc1	7%	-5.2	x	-3.0	20%	-1.3%	-4%
COc1ccccc1OCC(=O)NCCCn1ccnc1	12%	-12	-1.8%	-4.1	0%	0.9%	-5%
O=c1oc(-c2ccccc2[N+](=O)[O-])nc2ccccc12	-1%	-1.0	1.2%	0.8	u	-1.1%	-30%
Cc1nonc1C(=O)N/N=C/c1ccncc1	5%	-5.9	-0.5%	-3.2	22%	0.6%	-75%[inhibitor]
O=C(NCc1cccs1)c1ccc(CS(=O)Cc2cccc(Cl)c2)o1 (stereo unspecified)	-10%	-8.1	0.5%	-2.0	4%	0.3%	8%
O=C(Nc1cccc(Br)c1)Oc1cccc2cccnc12	x	x	-1.4%	-5.1	x	4.6%	x
CCN(C(=O)Cn1nc(C(=O)O)c2ccccc2c1=O)C1CCCCC1	8%	-2.2	x	-5.4	-6%	0.6%	9%[15.4 µM]
CCOc1ccc(OCCCC(=O)N2CCN(S(=O)(=O)c3ccc(Cl)cc3)CC2)cc1	8%	x	-1.5%	-3.8	x	1.5%	-13%
Cc1cc(C)n(C(=O)/C(C#N)=C/N(C)C)n1	5%	-2.3	x	-1.7	-2%	2.1%	-32%
COc1ccc(C(C)(C)C)cc1NC(=O)c1ccoc1C	-20%	4.3	0.9%	-5.9	3%	2.6%[38.3 µM]	-42%[inhibitor]
CCOC(=O)c1cnc(-c2ccccc2)nc1C(F)(F)F	-50%	1.8	x	-2.0	8%	5.6%	13%[15.4 µM]
COC(=O)Cc1nc(Nc2ccccc2)sc1C	-1%	1.8	x	-3.3	17%	-1.8%	11%[15.4 µM]
Cc1ccc(-n2ncc3c2ncn2nc(-c4ccco4)nc32)c(C)c1	2%	6.1	u	-1.8	20%	u	-19%
COCCN(C(=O)C1CCC1)c1nnc(-c2cccnc2)s1	1%	1.7	-8.5%	0.2	5%	-0.5%	0%
Cn1c(=O)c2c(ncn2CCC(=O)N/N=C/c2ccncc2)n(C)c1=O	19%	1.8	x	-1.5	12%	0.2%	50%[15.4 µM]
COc1ccc(OC)c(Nc2nc3nonc3nc2N2CCCCC2)c1	3%	1.7	-2.5%	1.3	5%	u	-42%[inhibitor]
N#C/C(=C\c1ccc([N+](=O)[O-])cc1)C(=O)NCCCn1ccnc1	9%	4.8	x	1.1	-9%	1.6%	39%[15.4 µM]
COc1cc(OC)c(C(=O)OCC(=O)Nc2ccc(N3CCOCC3)cc2)cc1OC	-13%	x	3.4%	1.1	x	1.7%	-25%
COc1nccnc1NS(=O)(=O)c1ccc(NC(=S)NC(=O)/C=C/c2ccccc2)cc1	-17%	0.2	-1.9%	-5.5	-11%	1.4%	6%[15.4 µM]
C/C(=N/OC(=O)c1cccc(C(F)(F)F)c1)c1cnccn1	0%	1.0	x	0.5	-4%	0.5%	8%[15.4 µM]
Cc1nc2ncnn2c(N2CCC(C(=O)NC3CCCC3)CC2)c1Cc1ccccc1	-8%	6.4	-3.4%	-1.4	2%	18%[38.3 µM]	-10%
COc1ccc(OCC(=O)OCC(=O)NC2CCCC2)cc1	2%	x	-5.0%	-6.6	x	-0.7%	5%[15.4 µM]
Cc1ccc2oc(=O)c3cc(C(=O)N4CCN(C)CC4)sc3c2c1	8%	-0.7	-20%	-7.7	14%	0.2%	-17%
Cc1ccc2cccc(OCCCOc3ccccc3CO)c2n1	-10%	2.2	-16%	8.9	14%	4.8%	-10%
O=c1sc(/C=N/Nc2ccccc2)c(Cl)n1Cc1ccccc1	3%	-0.9	x	-1.7	50µM*	12%	-1%[15.4 µM]
O=C(Cc1c(F)cccc1Cl)NCc1cccnc1	-2%	1.8	0.2%	-5.2	14%	1.0%	-2%[15.4 µM]
COc1cc(C(=O)Nc2ccc(S(=O)(=O)N(C)c3ccccc3)cc2)cc(OC)c1OC	-13%	-5.7	-4.8%	-0.6	8%	2.3%	-7%
O=[N+]([O-])c1ccc(OCC(O)CN(CCO)CCO)cc1 (stereo unspecified)	-4%	x	1.3%	-2.4	6%	2.8%	-28%
CCOC(=O)CSc1nnc(Cn2nnc(-c3ccccc3)n2)n1CC	-8%	6.5	-3.3%	-1.3	19%	-1.9%	-33%[inhibitor]
Cn1nc(C(=O)N2CCOCC2)c2ccccc2c1=O	15%	4.8	0.1%	-4.3	13%	1.0%	24%
Cc1cccc(N2CCN(C(C)C(=O)N3CCc4ccccc43)CC2)c1C (stereo unspecified)	-2%	0.2	x	-1.5	-4%	3.6%	1%
COc1ccccc1OCC(=O)Nc1nnc(C2CCCC2)s1	10%	x	-0.3%	1.7	14%	3.2%	0%
CC(Sc1nnc(Cc2ccc3c(c2)OCO3)o1)C(N)=O (stereo unspecified)	-7%	-0.1	-1.1%	-4.7	20%	1.7%	-1%[15.4 µM]
CCCS(=O)(=O)c1nc(S(=O)(=O)c2ccc(C)cc2)c(N2CC(C)OC(C)C2)s1 (stereo unspecified)	-7%	x	1.4%	-0.1	3%	-1.4%	u
CCc1ccc(NC(=O)C(C)Oc2nnc(-c3cccs3)c(-c3cccs3)n2)cc1 (stereo unspecified)	-13%	1.2	-1.2%	-4.7	13%	8.9%	-8%
COCC(C)n1c(C)cc(C(=O)COC(=O)c2ccc(N3CCCC3=O)cc2)c1C (stereo unspecified)	-11%	1.8	0.1%	-0.6	17%	-0.4%	-1%
O=C(C[C@@H]1C/C=C\C[C@H](Cc2ccc(F)cc2)C(=O)OCCNC1=O)NCCO	7%	x	-2.7%	-0.7	x	0.8%	1%
COc1cc(/C=C/c2nc(N)nc(-c3ccccc3O)n2)cc(OC)c1OC	8%	4.9	0.2%	2.1	3%	4.7%	0%
Cc1ccc([C@H]2C(C(=O)O)=CC[C@@H](c3cccc(C)c3)N2S(=O)(=O)c2ccc(C)cc2)cc1	5%	x	1.6%	0.6	x	-0.5%	x
NC(=O)c1ccc(NS(=O)(=O)c2ccccc2F)cc1	2%	0.0	1.5%	-2.1	5%	-1.2%[38.3 µM]	-45%[inhibitor]
COC(=O)c1ccc(NC(=O)c2snnc2-c2ccccc2)cc1	-8%	-3.6	0.6%	-3.8	12%	0.2%	-23%
CCOC(=O)c1c(C)n(C)c2ccc(O)c(CN3CCN(C)CC3)c12	6%	-0.2	-0.9%	2.4	13%	-6.2%[38.3 µM]	-13%
Cc1ccc(CC2(C)C(=O)Nc3ccc(OC(F)(F)F)cc32)cc1 (stereo unspecified)	x	x	-1.9%	3.1	x	1.9%	x
O=S(=O)(c1ccccc1)N1CCC2(CC1)CN(c1ncccn1)C2	x	-3.8	x	x	-10%	-0.1%	x
CS(=O)(=O)N1CCN(C(=O)c2cc(-c3cccnc3)nc3ccc(Br)cc23)CC1	-9%	-1.2	x	11	-6%	0.3%	-20%[15.4 µM]
CC1CCCCN1C(=O)CSc1nnc(-c2cccnc2)n1C1CCCCC1 (stereo unspecified)	-8%	-2.6	-1.9%	-0.6	6%	-0.3%[38.3 µM]	6%
CC1Cc2ccccc2N1CC(=O)Nc1cccc(S(N)(=O)=O)c1 (stereo unspecified)	11%	1.3	x	-1.1	5%	-0.9%	3%[15.4 µM]

(more compounds)
SMILES	gsp antag	Menin-MLL FL inh	ClpP mod	D2 ag	Sfp PPTase inh	PINK1 modulator	gsp agonist
Cn1nccc1C(=O)N1CCc2c([nH]c3ccccc23)C1c1ccc(F)cc1 (stereo unspecified)	-12%	0.8	x	-3.4	u	-0.4%	-9%
O=C(CN1CCN(c2ccccc2)CC1)N/N=C/c1cccc(F)c1	4%	5.3	0.9%	-2.8	-4%	0.7%	-2%
CCCCCc1ccc(-c2cn(Cc3ccc([N+](=O)[O-])cc3)nn2)cc1	5%	1.1	0.4%&-2.9%	0.1	14%	10.0%	x
CNc1ncnc2c1ncn2[C@H]1CN(C2CCCC2)C[C@@H](CO)O1	x	x	-0.1%	-3.1	x	-0.2%	x
Cc1ccc(S(=O)(=O)c2cc(C)cc(S(=O)(=O)Nc3ccc(C(=O)O)cc3)c2C)cc1	x	x	x	-1.4	-2%	1.9%	8%[15.4 µM]
O=C(Nc1cccc(NC(=O)c2cccnc2Cl)c1)c1ccco1	-2%	4.3	0.5%	-3.3	14%	0.5%	-15%
O=C(NCc1ccc(F)cc1)Nc1cccc(Cl)c1	-10%	-0.4	x	-0.5	5%	1.2%	3%[15.4 µM]

Bioassay records: PubChem, National Center for Advancing Translational Sciences (NCATS)
